RE007 growth inh: less growth of the S. pombe RE007 Vpr strain; AID 651644; Potency, µM (highest dose often 92.2 µM), for the others: top-dose activity change, negative = less growth; S. pombe RE007 Vpr strain, BacTiter-Glo ATP luminescence, 24 h; control for the full effect not named in the record; 360,000 compounds, 0.21% hits; active = well fitted falling curve with a large enough effect; inconclusive = small, poorly fitted or top-dose-only effect; inactive = no such curve, though single readings can be large or run the other way;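 also: % is scaled to controls: 0 for no effect and ±100 for the full control effect; nearly all actives have a fitted effect of over 50% in size; the assay follows cell death caused by Vpr and the record does not say whether a fall means rescue or toxicity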
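Fission yeast strain RE007, carrying one chromosomally integrated HIV-1 vpr copy, was seeded at OD 0.01 in PMG+AL medium with 23 nL pinned compound. After 24 h at 30 °C and 99% humidity, viability was read by BacTiter-Glo luminescence.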
NS1 function inh: inhibitors of influenza NS1 protein function; S. cerevisiae slowed by influenza A NS1, growth recovery by OD600; Potency, µM (series often up to 46.1 µM), without a hit: at the highest dose activity, positive = more growth; 270,000 compounds, 0.4% hits; AID 2326; active means well fitted rising curve with a large enough effect; inconclusive means small, poorly fitted or top-dose-only effect; inactive means no such curve, though single readings can be large or run the other way; also: nearly all actives have a fitted effect of over 50% in size
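Growth recovery, yeast-based: influenza A NS1 expressed in S. cerevisiae causes slow growth, and suppressors are detected by OD600. The parent strain without NS1 is used as positive control.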
MARV entry inh: inhibitors of Marburg virus binding or cell entry | Potency, µM (top dose mostly 37.8 µM), for the others: at the top dose activity change, negative = inhibition, actives largely listed as inhibitors | Marburg virus pseudotyped entry inhibition, cell reporter; control for the full effect not named in the record; about a third of the inactives were read at about 46 µM | 300,000 compounds, 1.8% hits; active = well fitted inhibition curve with a large enough effect; inconclusive = small, poorly fitted or top-dose-only effect, or effect the other way; inactive = flat fitted curve, though single readings scatter; tested in HEK293 cells; about a fifth of its hits are not listed in these tables; also: % is scaled to controls: 0 for no effect and ±100 for the full control effect; luciferase read-out
Cruzain inh Det: cruzain (T. cruzi) inhibition with detergent; purified cruzain, Z-FR-AMC fluorescence, 0.01% Triton; AID 1478; 200,000 compounds, 0.43% hits; P25779; Potency, µM, for the others: max response, negative = inhibition, usual class: inhibitors;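 also: plate controls were neutral wells for no effect and buffer without enzyme for full effect; nearly all actives have a fitted effect of over 40% in size; top concentration of the series not given in the record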
Target sequence (P25779 123-467 limits assumed): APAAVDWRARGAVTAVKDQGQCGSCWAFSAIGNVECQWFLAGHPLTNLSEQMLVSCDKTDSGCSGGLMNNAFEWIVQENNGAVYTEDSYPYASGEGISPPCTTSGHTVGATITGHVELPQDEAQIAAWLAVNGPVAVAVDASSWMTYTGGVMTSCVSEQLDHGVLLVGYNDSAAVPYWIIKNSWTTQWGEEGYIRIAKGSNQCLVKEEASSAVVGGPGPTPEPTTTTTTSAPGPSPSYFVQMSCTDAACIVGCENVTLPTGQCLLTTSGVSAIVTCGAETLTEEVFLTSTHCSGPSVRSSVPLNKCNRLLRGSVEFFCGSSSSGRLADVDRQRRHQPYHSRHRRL
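Z-FR-AMC hydrolysis (2 uM substrate) by cruzain (1.5 nM) monitored kinetically at ex 360/em 450 nm after 15 min room-temperature compound exposure; 0.01% Triton X-100, pH 5.5, 5 mM DTT.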
Cruzain inh noDet: inhibitors of Trypanosoma cruzi cruzain without detergent; P25779; AID 1476; 200,000 compounds, 2.3% hits; Potency, µM, without a hit: max response, negative = inhibition, most hits filed as inhibitors; purified cruzain, Z-FR-AMC fluorescence, no detergent;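 also: plate controls were enzyme without inhibitor for no effect and buffer without enzyme for full effect; nearly all actives have a fitted effect of over 40% in size; top concentration of the series not given in the record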
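Purified cruzain at 1.5 nM, pre-incubated 15 min with compound at room temperature in 100 mM sodium acetate pH 5.5, 5 mM DTT, 0.00005% Triton X-100. Reaction started with 2 uM Z-FR-AMC; AMC fluorescence increase over 60 s gives rate.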
SARS PLP yeast: SARS-CoV PLP inhibition in yeast; S. cerevisiae expressing SARS-CoV PLpro, growth rescue; control for the full effect not named in the record; Potency, µM (series often up to 32.9 µM), inactives show at the top dose activity, positive = growth rescue; 330,000 compounds, 0.19% hits; active means well fitted rising curve with a large enough effect; inconclusive means small, poorly fitted or top-dose-only effect; inactive means no such curve, though single readings can be large or run the other way; also: 0% is about no effect; nearly all actives have a fitted effect of over 55% in size; growth read by luminescence after 48 h
LASV entry inh: Lassa virus entry inhibition; Lassa virus pseudotype entry inhibition, cell reporter; control for the full effect not named in the record; 300,000 compounds, 1.2% hits; Potency, µM (doses to about 37.9 µM), inactives show top-dose activity change, negative = inhibition, most hits filed as inhibitors; active means well fitted inhibition curve with a large enough effect; inconclusive means small, poorly fitted or top-dose-only effect, or effect the other way; inactive means flat fitted curve, though single readings scatter; tested in HEK293 cells; also: % is scaled to controls: 0 for no effect and ±100 for the full control effect; nearly all actives have a fitted effect of over 50% in size; luciferase read-out
2A StopGo: lowers the luciferase signal of an FMDV 2A StopGo reporter. 410,000 compounds, 1.2% hits. Potency, µM (highest dose often 57.9 µM), for the others: at the highest dose signal change, negative = less light. human cells with a luciferase reporter of 2A StopGo recoding; control for the full effect not named in the record; active = well fitted falling curve with a large enough effect; inconclusive = small, poorly fitted or top-dose-only effect; inactive = no such curve, though single readings can be large or run the other way; tested in HEK293T cells; also: % is scaled to controls: 0 for no effect and ±100 for the full control effect; nearly all actives have a fitted effect of over 45% in size; luciferase light after 4 h
* marks the source's active call; other numbers are inactive results; u = inconclusive; x = no result given; & = joins results of further samples; [ ] = dose if it differs, or a comment. Unless noted, calls follow the shape of the dose curve; as a rule, active = well fitted curve in the direction sought with a large enough effect; inconclusive = small, poorly fitted or top-dose-only effect, or another doubt; inactive = no such curve, though single readings can be large; an effect the other way counts as inactive or inconclusive. Potency is read from the fitted curve at half-maximal effect.

SMILES | RE007 growth inh | NS1 function inh | MARV entry inh | Cruzain inh Det | Cruzain inh noDet | SARS PLP yeast | LASV entry inh | 2A StopGo
C=CCn1c(CCn2c3ccccc3c3ccccc32)n[nH]c1=S | x | -4% | 17% | -7.5% | -7% | -2% | 2% | -24%
Cc1nc(P(=O)(c2ccccc2)c2ccccc2)c(N2CCOCC2)o1 | u | 1% | 1% | 2.8% | -4% | 5% | 3% | 21%
CC(=O)c1ccc(S(=O)(=O)Nc2ccc(Cl)c(S(=O)(=O)N3CCCC3)c2)cc1 | 1% | x | 17% | x | x | 0% | 13% | 73%[activator]
O=C(Cc1ccc(NC2=NC3CS(=O)(=O)CC3S2)cc1)Nc1ccc(F)cc1 (stereo not given) | 7% | 9% | x | x | x | 1% | x | -28%
CN1C(=O)CC(N2CCN(C(=O)CN3CCCC3)CC2)C1=O (stereo not given) | -4% | 3% | -4% | -3.6% | 3% | -3% | 1% | -8%
Cc1ccc(NC(=O)COC(=O)c2cc(C)nc3ccccc23)c([N+](=O)[O-])c1 | 13% | 12% | 12%[46.1 µM] | -1.1% | -20% | 2% | 5% | -6%
COc1cc2c(cc1OC)CN(CC(=O)Nc1cccc([N+](=O)[O-])c1)CC2 | -1% | 14% | x | x | x | 1% | x | -16%
CC1(C(=O)N/N=C/c2c(F)c(F)c(F)c(F)c2F)CC1(Cl)Cl (stereo not given) | 8% | x | u | x | x | x | u | -22%
Nc1nonc1-n1nnc(C(=O)N/N=C\c2cccc(Cl)c2)c1CN1CCOCC1 | 4% | -14% | 9% | x | x | -2% | 13% | -11%
COc1ccc(-c2nc(CSCC(=O)NCc3ccco3)c(C)o2)cc1 | 8% | -2% | -18% | -2.3% | 6% | 12% | -10% | u
Cc1cccc(NC(=O)c2nc[nH]c2C(=O)N[C@@H](Cc2ccccc2)C(=O)OC(C)(C)C)c1 | 13% | u | x | x | x | -1% | x | -22%
CCOCCCNC(=O)C(c1ccc(OC)cc1)N(Cc1ccc2c(c1)OCO2)C(=O)c1ccccc1O (stereo not given) | -16% | x | u | -1.4% | u | 2% | u | 20%&53%
CCNC(=S)N1CCNC(=O)C1CC(=O)OC (stereo not given) | 16% | 14% | 6%[46.1 µM] | 7.2% | -5% | 24% | 11%[46.1 µM] | u
Cc1occc1C(=O)NNC(=O)Nc1ccc(Cl)c(Cl)c1 | -2% | -15% | -3% | -3.2% | -3% | 19% | -4% | 19%
COc1cccc(-n2c(SC)nnc2-c2c[nH]c3ccccc23)c1 | -5% | -2% | x | -4.4% | -1% | -2% | x | u
COc1ccc(CCN(C)C(=O)c2cncc(Br)c2)cc1OC | -15% | -15% | -3%[46.1 µM] | x | x | 0% | 22% | -7%
COc1cccc(-c2noc(-c3ccc(Br)o3)n2)c1 | -17% | -8% | u | x | x | -1% | x | 30%
O=C1CCCN1c1ccc(CNS(=O)(=O)c2ccc(F)cc2)cc1 | 11% | -6% | 9%[46.1 µM] | -0.9% | -1% | 12% | u | -8%
O=C(Cn1cc(C(=O)C2CC2)c2ccccc21)NCc1ccc2c(c1)OCO2 | 6% | -12% | 6% | -1.0% | -4% | -5% | 13% | -1%
CCc1cccc(C)c1NC(=O)CSc1nnc(C)o1 | -4% | 13% | 19%[46.1 µM] | x | x | 0% | u | -4%
COc1cc(O)ccc1C(=O)CCc1ccc(O)cc1 | -8% | 18% | 7% | x | x | -7% | u | 0%
Cc1sc(NC(=O)c2ccco2)c(CN2CCN(c3ccc(F)cc3)CC2)c1C | 5% | 3% | u | -3.8% | 5% | 11% | 3% | 7%
O=C1CC(c2ccccc2)Sc2ccccc2N1Cc1ccc(F)cc1 (stereo not given) | x | x | 2%[46.1 µM] | -6.9% | -1% | x | x | u
COc1ccccc1NC(=O)Nc1cc(C(C)(C)C)nn1C | 5% | 5% | -9%[46.1 µM] | x | x | -1% | -4%[46.1 µM] | 2%
CC(=O)c1cccc(N2C(=NC(=O)COc3ccccc3)SC3CS(=O)(=O)CC32)c1 (stereo not given) | 5% | -2% | x | x | x | 28% | x | 0%
Continued.
SMILES | RE007 growth inh | NS1 function inh | MARV entry inh | Cruzain inh Det | Cruzain inh noDet | SARS PLP yeast | LASV entry inh | 2A StopGo
COc1ccc2ccccc2c1CNCCc1ccccc1 | -4% | -15% | x | x | x | 4% | x | -4%
CCc1nnc(NC(=O)c2ccc(S(=O)(=O)N(CC(C)C)CC(C)C)cc2)o1 | -2% | -38% | u | -1.5% | u | u | u | 6%
CCOC(=O)C1=C(CC)Nc2ccccc2N=C1NC(=O)c1ccc(S(=O)(=O)N2CCCC2)cc1 | -23% | -1% | -17%[46.1 µM] | x | x | -9% | -25% | -5%
CCn1c(SCC(=O)Nc2nccs2)nnc1-c1ccccn1 | 1% | -2% | u | x | x | 4% | -36% | -4%
NC1=NC[C@H](Cc2ccc(O)cc2)N1CCCCC1CCCCC1 | -6% | 4% | x | x | x | -3% | x | u
COc1ccc(OC)c(S(=O)(=O)N2CCC(C(=O)NC(C)c3ccccc3)CC2)c1 (stereo not given) | 16% | -17% | 5% | -4.7% | 1% | -6% | -3% | 1%
O=C(O)c1cc2c(cc1NC(=O)c1c(F)cccc1Cl)OCCCO2 | 7% | 17% | 2%[46.1 µM] | x | x | 5% | u | -1%
O=S(=O)(Nc1nc2ccccc2[nH]1)c1ccc(Cl)cc1 | -14% | -18% | -1% | -15% | -15% | -2% | 11% | -5%
COc1ccc(C(=O)NCc2cc(C(C)C)no2)cc1OC1CCN(C(C)C)CC1 | 1% | -4% | x | x | x | 0% | x | -3%
Cc1ccc(S(=O)(=O)N(C)c2cc(S(N)(=O)=O)c(C)cc2C)cc1 | -5% | x | 4%[46.1 µM] | x | x | 0% | -5%[46.1 µM] | -3%
C(=N\N(c1ccccc1)c1ccccc1)/c1ccc(N2CCOCC2)s1 | 11% | u | u | -2.6% | u | -9% | -18% | -21%
CC1CCc2cc(F)cc3c(=O)c(C(=O)O)cn1c23 (stereo not given) | 6%[18.4 µM] | 0% | 3%&3%&3%&3%&3%&3%&3% | -1.1%&2.1% | -2%&0% | 0% | 10% | -12%&4%
CC1(C)C(=O)Nc2ccccc2N1C(=O)Cn1ncc(Cl)c(Cl)c1=O | 5% | -4% | x | x | x | 0% | x | -22%
CSc1n[nH]c(NC(C)=O)n1 | -5% | -4% | 2% | 4.8% | 1% | 2% | -7% | 13%
O=[N+]([O-])c1cc(S(=O)(=O)NCCN2CCOCC2)ccc1Sc1nnnn1-c1ccccc1 | -9% | 5% | 16µM* | 0.0% | -7% | 17% | -2% | u
Cc1ccc(S(=O)(=O)c2n[nH]n3c2nc(=O)c2ccccc23)cc1 | -15% | -53% | -4% | -4.0% | -5% | 8% | 1% | -9%
Cc1[nH]nc2c1C1(CCC(c3ccccc3)CC1)C(C#N)=C(N)O2 (stereo not given) | -4% | 9% | 20% | -13% | -15% | 2% | u | -20%
O=C(O)c1ccc2c(c1)C(=O)N(Cc1ccccc1)C2=O | -5% | 5% | 8% | 5.0% | -5% | -2% | 1% | -12%
C=CCNC(=O)c1ccccc1NC(=O)c1ccccc1 | 7% | -92% | 5% | 0.2% | -5% | -5% | 11% | 0%
CCCN1CCN(C(=O)Nc2ccc(C(=O)OCC)cc2)CC1 | -6% | 2% | 3% | -5.8% | -4% | 2% | -5% | 18%
Cc1ccc2nc3sc(-c4nnc(-c5ccccc5[N+](=O)[O-])o4)c(N)c3cc2c1 | x | 2% | x | 11% | -21% | 6% | x | x
CS(=O)(=O)Cc1cc(Sc2ccccc2)nc(-c2ccncc2)n1 | 12% | x | u | x | x | 0% | -14% | -14%
CCN(Cc1ccccc1)C(=O)Cn1c(=O)oc2cc(S(=O)(=O)N3CCCCCC3)ccc21 | x | x | -4%[46.1 µM] | 3.8% | 39% | x | u | -6%
COc1cc2c(cc1NC(=O)C(C)NCc1ccccc1)oc1ccccc12 (stereo not given) | -26% | -46% | u | -13% | -15% | -52% | 20% | -5%
CC(C)(CO)CNC(=O)CCc1nnc(C2(c3ccc(Cl)cc3)CCC2)o1 | 15% | 1% | x | x | x | 5% | x | 18%
Next part.
SMILES | RE007 growth inh | NS1 function inh | MARV entry inh | Cruzain inh Det | Cruzain inh noDet | SARS PLP yeast | LASV entry inh | 2A StopGo
O=C(CSc1ccccc1)N1CCN(S(=O)(=O)c2cccs2)CC1 | 15% | -14% | 3%[46.1 µM] | x | x | -4% | 17%[46.1 µM] | 6%
CCCCOc1c(Cl)cc(C(=O)N(Cc2ccc(C)o2)C2CCS(=O)(=O)C2)cc1Cl (stereo not given) | x | x | u | -12% | u | x | -2%[46.1 µM] | u
Cn1c(Cc2ccccc2)nnc1SCc1cc(=O)n2ccsc2n1 | -16% | x | 1%[46.1 µM] | x | x | 1% | 10% | 18%
Cc1ccc(S(=O)(=O)N2CCN(C(=O)C3=COCCO3)CC2)cc1C | 16% | 1% | 9%[46.1 µM] | 5.2% | -12% | -6% | 7% | u
CCn1cc(S(=O)(=O)N2CCN(c3ccc(Cl)cc3)CC2)cn1 | 23% | 0% | -27% | x | x | -2% | -24% | -18%
Cc1cc(=O)[nH]c(SCC(=O)NCC2CCCCC2)c1C#N | -8% | x | -22%[46.1 µM] | x | x | -2% | -19%[46.1 µM] | 13%
Cc1nc2cc(NC(=O)N3c4ccccc4CC3C)ccc2o1 (stereo not given) | 14% | -7% | 1% | 0.6% | -11% | 3% | -8% | x
Cc1ccc(OCc2cc(C(=O)NCC3COCCO3)no2)cc1C (stereo not given) | -1% | 0% | -6% | x | x | -4% | u | 14%
COc1cccc(NC(=O)COC(=O)c2cccnc2)c1 | -2% | 0% | u | 3.7% | -5% | 2% | -2% | 14%
COC(=O)N[C@H](CC(C)=O)c1ccccc1 | x | -3% | 11% | 3.1% | -7% | -2% | 4% | x
COc1ccc2nc3cc(Cl)ccc3c(Nc3ccc(O)c(CN4CCN(C)CC4)c3)c2c1 | 0% | -3% | 4.5µM* | -2.1% | -1% | x | u | 1%
CC1=NOC(=O)/C1=C\c1ccc(-c2ccc(Cl)c(C(=O)O)c2)o1 | 7% | x | -15% | x | x | 0% | 0% | 2%

Not a hit list; 4.8% or so of the library scored in one or more.
